From PubChem BioAssay
Sa ugtP lethal: growth inhibition of S. aureus ugtP deletion strain; AID 1259309; growth inhibition, % (no concentration beside the values); S. aureus RN4220 ugtP deletion, OD600 growth, 16 h; some inactives read as strong as hits; 330,000 tested, 0.54% active;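 active means z-score under -3 and OD600 up to 0.15 on both plates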;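 further: plate controls were untreated wells for no effect and antibiotic for full effect; wells of about 80 µL received 100 nL stock; the first replicate is given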
Autofluor counter: compound fluorescence in toxin protease inhibitor counterscreen. 360,000 tested, 3.1% active. fluorescence intensity (no concentration beside the values). AID 624483. compound autofluorescence counterscreen, microsphere flow cytometry; hits give high values;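 active means at least 3 SD above the mean of all compounds, about 16000 in these data; inconclusive means too few beads counted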;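 further: 100 nL of 1 mM stock went into each well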
Sa RN4220 lethal: S. aureus RN4220 growth inhibition. OD600, 16 h. inhibition, % (test concentration not listed). 330,000 tested, 0.33% active. AID 1259311;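 active means z-score of -3 or lower and OD600 up to 0.18 on both plates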;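 further: plate controls were untreated cells for no effect and reference antibiotic for full effect; stock transfer was 100 nL into about 80 µL; one replicate is shown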
BJeLR viability: BJeLR cell viability loss; inhibition, % (test concentration not listed); 300,000 tested, 0.17% active; BJeLR (HRASV12) viability, CellTiter-Glo ATP luminescence, 48 h; reference of the scale not given here;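 active means replicate mean above 50%; inconclusive means above 50% but judged a plate artefact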;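 further: 50 nL library stock added to about 25 µL; numbers are from one replicate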
Mtb hypoxia rep: inhibitors of hypoxia-regulated fluorescent reporter in Mycobacterium tuberculosis | fluorescence inhibition, % (concentration not given with the values) | 300,000 tested, 0.1% active | M. tuberculosis hypoxia-regulated fluorescent reporter, fluorescence | AID 1159583;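 active means 35 to 45% if threefold the growth effect, above 45% if 1.5-fold the growth effect; inactive means the rest, general growth blockers included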;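 further: wells of about 50 µL received 100 nL stock; 0% = vehicle wells and 100% = reference inhibitor wells; whole bacteria with a GFP reporter of the hypoxia response; strong numbers were not always called active; many hits fall short of the cut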
PrP UTR inh: suppresses PrP 5' UTR mRNA reporter expression; inhibition, % (test concentration not listed); 340,000 tested, 0.35% active; cell-based PrP 5' UTR mRNA reporter, plate reader;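 active means every replicate at 50% or more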;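 further: 0 = median of the neutral control wells; tested in H4 reporter cells; numbers are from one replicate; inactives centre near -14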
Mtb hypoxia rep growth: further read-out of Mtb hypoxia rep, marked with its call; growth inhibition, %; measured here: M. tuberculosis growth (absorbance);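 0% = vehicle and 100% = reference antibiotic; read after six days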
* = called active by the depositor; ? = inconclusive; / = no result given.

SMILES	Sa ugtP lethal	Autofluor counter	Sa RN4220 lethal	BJeLR viability	Mtb hypoxia rep	Mtb hypoxia rep growth	PrP UTR inh
CC(=O)c1cccc(NC(=O)CC2S/C(=N/N=Cc3ccccc3)NC2=O)c1 (stereo not given)	4	/	8.0	/	15	10	/
O=C1CCCCC=CCC(CC(=O)N(CCO)Cc2ccccc2)C(=O)NC(c2ccccc2)CO1 (stereo not given)	-1	/	6.5	/	9	1	/
Nc1ccc(C(=O)N2CCN(S(=O)(=O)c3ccc(Cl)s3)CC2)cc1[N+](=O)[O-]	0	4965	-1.2	-1	-1	12	-8
O=C(Nc1ccn(Cc2ccccc2F)n1)c1ccc(COc2cc(Cl)ccc2Cl)o1	17	11595	1.9	2	8	1	-22
O=C(Nc1nc2c(ccc3ccccc32)s1)c1ccco1	66	3511	27	0	7	1	-70
O=C(NCCCSc1ccccc1)c1ccc(=O)[nH]c1	2	5473	-3.8	-7	2	-6	-19
Cc1ccc(-c2cc(C(F)(F)F)c(C#N)c(SCC(=O)O)n2)cc1	/	4383	/	-7	/	/	-10
CC1(C)C2CCC(C2)C1(C)NC(=O)CNC1CCCCC1 (stereo not given)	3	3246	3.6	-4	10	-6	-8
CCOC(=O)CCC(NC(=O)c1ccccc1C(=O)NC(CCC(=O)OCC)C(=O)OCC)C(=O)OCC (stereo not given)	3	4917	5.0	1	6	-2	-12
O=C(CNc1ccc(F)cc1)NN=Cc1c(O)ccc2ccccc12	13	/	0.3	/	-2	-4	/
COc1ccc(Cl)cc1NC(=O)C[n+]1cccc(C)c1	2	4697	0.8	-5	16	-5	-4
CNC(=S)NN=C(C)c1ccc(N2CCOCC2)cc1	5	/	0.8	/	5	14	/

Quoted at random: 7 entries already listed, in no set order.
SMILES	Sa ugtP lethal	Autofluor counter	Sa RN4220 lethal	BJeLR viability	Mtb hypoxia rep	Mtb hypoxia rep growth	PrP UTR inh
O=C(Nc1nc2c(ccc3ccccc32)s1)c1ccco1	66	3511	27	0	7	1	-70
O=C(Nc1ccn(Cc2ccccc2F)n1)c1ccc(COc2cc(Cl)ccc2Cl)o1	17	11595	1.9	2	8	1	-22
COc1ccc(Cl)cc1NC(=O)C[n+]1cccc(C)c1	2	4697	0.8	-5	16	-5	-4
Cc1ccc(-c2cc(C(F)(F)F)c(C#N)c(SCC(=O)O)n2)cc1	/	4383	/	-7	/	/	-10
O=C1CCCCC=CCC(CC(=O)N(CCO)Cc2ccccc2)C(=O)NC(c2ccccc2)CO1 (stereo not given)	-1	/	6.5	/	9	1	/
Nc1ccc(C(=O)N2CCN(S(=O)(=O)c3ccc(Cl)s3)CC2)cc1[N+](=O)[O-]	0	4965	-1.2	-1	-1	12	-8
CC1(C)C2CCC(C2)C1(C)NC(=O)CNC1CCCCC1 (stereo not given)	3	3246	3.6	-4	10	-6	-8

Continued:
SMILES	Sa ugtP lethal	Autofluor counter	Sa RN4220 lethal	BJeLR viability	Mtb hypoxia rep	Mtb hypoxia rep growth	PrP UTR inh
Cc1nn(-c2ccccc2)c(C)c1C(=O)NCc1cccs1	-3	2602	-4.5	-23	1	4	-5
CN(CC1COc2ccccc2O1)C(=O)CSc1ncccn1 (stereo not given)	3	2886	0.3	/	17	2	-32
COc1cc(/C=N/n2c(C3CCCCC3)n[nH]c2=S)ccc1O	/	3083	/	-3	/	/	-6
Cc1ccc(C(=O)NCC(=O)NC2CCCCCC2)cc1	10	3380	4.8	-3	5	1	-13
CC(C)=CCC/C(C)=C/CNC(=O)CC1C[C@H](C(=O)N2CCCCC2)[C@@]2(C)c3[nH]c4ccccc4c3CCN2C1=O (stereo not given in full)	1	3847	-2.9	/	1	-4	-10
CN(Cc1nc(C(c2ccccc2)c2ccccc2)no1)CC1COCCO1 (stereo not given)	2	4681	4.1	8	2	7	5
Cc1ccc(S(=O)(=O)N2CCCC2C(=O)NC2=NCCS2)cc1 (stereo not given)	1	2964	8.1	3	10	2	-3
CCOc1ccc(NC(=O)CCNS(=O)(=O)c2cccc3nsnc23)cc1	6	5071	3.0	-7	-6	5	14
COc1ccccc1/C=C/c1nc(C#N)c(N(C)C)o1	4	4563	7.4	7	-4	2	-62
COc1ccc(OC)c(S(=O)(=O)N2CCCCCC2)c1	4	2880	5.2	-8	/	/	-5
CC(NC(=O)c1cc2cc(Br)ccc2oc1=N)c1ccccc1 (stereo not given)	-7	6102	-4.0	8	0	3	-11
Cc1nnc(Sc2cc(NCCO)c([N+](=O)[O-])c3nonc23)s1	4	3943	2.9	33	10	7	-15
COc1ccc2ncc(S(=O)(=O)c3ccccc3)c(N3CCN(c4ccccc4)CC3)c2c1	-6	2097	-2.5	-7	4	6	-13
O=C(CSc1ccc2nnc(CCNC(=O)c3ccccc3)n2n1)Nc1ccccc1F	8	4343	3.6	-8	-5	11	-10
O=C(NCCOc1ccccc1)C1Nc2ccc(C(F)(F)F)cc2C2c3ccccc3CC12 (stereo not given)	42	4169	74	3	0	4	-6
COc1cc(C2C(C(=O)Nc3ccc(F)cc3)=C(C)Nc3nc(CCCO)nn32)cc(OC)c1OC (stereo not given)	14	5834	0.4	-12	/	/	-13
CC1(OC(=O)C2CCCC2)C(=O)C=C2C=C(c3ccsc3)N(CCCCO)C=C2C1=O (stereo not given)	-5	3727	4.8	3	7	7	-13
COc1ccccc1OCC(=O)NN=CC=Cc1ccc([N+](=O)[O-])o1	100*	/	101*	/	/	/	/
Cc1ccc(OCCOCCOc2cccc3cccnc23)c(Br)c1	-5	2315	13	2	/	/	-30
Cc1ccc(N(Cc2ccccc2)C(=O)Cc2ccc(S(=O)(=O)N3CCOCC3)s2)cc1	8	7178	2.0	/	6	7	-44
COc1ccccc1N1CCN(/N=C(\C)c2ccc(O)cc2)CC1	/	3648	/	-4	/	/	-20
COc1ccc(-c2nnc3ccc(SCC(=O)NCC4CCCO4)nn23)cc1 (stereo not given)	-4	25334*	0.1	-14	2	7	-13
CN(Cc1ccc(Cl)cc1Cl)C(=O)c1cccc(S(=O)(=O)NCc2ccccc2)c1	-22	3707	13	/	-2	6	-19
COC(=O)C1C(=O)C=C(Nc2ccc(F)cc2F)CC1c1ccccc1 (stereo not given)	11	2587	8.1	-7	10	-3	-27

A draw from above in order of molecular weight, rising:
SMILES	Sa ugtP lethal	Autofluor counter	Sa RN4220 lethal	BJeLR viability	Mtb hypoxia rep	Mtb hypoxia rep growth	PrP UTR inh
COC(=O)C1C(=O)C=C(Nc2ccc(F)cc2F)CC1c1ccccc1 (stereo not given)	11	2587	8.1	-7	10	-3	-27
CC1(OC(=O)C2CCCC2)C(=O)C=C2C=C(c3ccsc3)N(CCCCO)C=C2C1=O (stereo not given)	-5	3727	4.8	3	7	7	-13
COc1ccc2ncc(S(=O)(=O)c3ccccc3)c(N3CCN(c4ccccc4)CC3)c2c1	-6	2097	-2.5	-7	4	6	-13

Carrying on.
SMILES	Sa ugtP lethal	Autofluor counter	Sa RN4220 lethal	BJeLR viability	Mtb hypoxia rep	Mtb hypoxia rep growth	PrP UTR inh
Cc1ccc([N+](=O)[O-])cc1NC(=O)CSc1nncn1-c1ccccn1	1	5183	1.9	-8	1	-1	5
[O-][n+]1onc2c1CCc1nnc(-c3ccccc3)cc1-2	-4	2810	-1.5	0	/	/	-10
COc1cccc(CN2CCN(Cc3ccc(O)c(OC)c3)CC2CCO)c1 (stereo not given)	2	4058	1.9	2	9	6	-3
Cc1csc(C(C)NC(=O)c2ccc(OC3CCN(CCc4ccccc4)CC3)cc2)n1 (stereo not given)	-2	5257	-6.7	-8	-2	8	8
CC(C)N1CCN(C(=O)c2ccc(NC(=O)c3ccc(Br)o3)cc2)CC1	2	3795	7.5	/	-2	-2	-16
Cc1cccc(C)c1NC(=O)NCCCN1CCN(c2ccccc2)CC1	4	4282	4.8	-11	0	-3	-9
COC(=O)c1ccc(CSc2nnc(-c3ccncc3)n2Cc2ccccc2)o1	9	4445	0.3	7	/	/	5
COc1ccc(Cl)cc1NC(=O)CN(C)C(=O)C1CC1	3	2966	0.1	/	7	4	-26
COc1ccc(NS(=O)(=O)c2ccc(OC)c(NC(=O)CCC3CCCCC3)c2)cc1	2	2504	1.2	10	1	8	-10
COc1ccc([N+](=O)[O-])cc1NC(=O)c1ccco1	10	4706	5.7	1	10	9	-3
COc1cccc(CN2C(=O)c3ccccc3C2C(=O)NCC2CCCO2)c1 (stereo not given)	4	10600	2.5	-4	-1	5	-12
COC(=O)c1cc(S(=O)(=O)N2CCCCC2)c[nH]1	8	4497	3.7	9	14	1	-13
COc1ccc(C2Nc3ccccc3NC3=C2C(=O)CC(C)(C)C3)cc1OC (stereo not given)	2	4701	2.4	13	-4	1	-11
CCC(C)NCCOCCOc1ccc(Cl)c2ccccc12 (stereo not given)	9	4607	-4.9	-2	14	7	1
CCCCOP(=O)(OCCCC)C(O)c1ccc(Br)cc1 (stereo not given)	-6	2499	7.8	-9	3	3	-7
c1coc(-c2ccnc(-n3cccc3)n2)c1	11	4205	21	5	15	1	-26
CCOC(=O)c1ccccc1NC(=O)COC(=O)c1ccccc1C(=O)N(C)c1ccccc1	1	4278	7.6	4	4	5	-10
CCOCCOC(=O)c1[nH]c2c(c1C)C(=O)CC(c1ccc(OC)c(OC)c1)C2 (stereo not given)	5	4118	1.4	5	7	3	-18
CCc1cc(CNC(=O)c2ccc(OC3CCN(CCc4ccccc4)CC3)cc2)on1	7	5856	0.1	3	5	4	-18
COc1cccc(/C=c2\sc3nc(-c4cccs4)nn3c2=O)c1OC	/	5658	/	-1	/	/	-30
COc1ccc(C2OC(=O)CC2C(=O)NCc2ccc(Cl)cc2)cc1OC (stereo not given)	2	4349	7.0	-22	11	8	-26
CCCn1c2ccccc2c2cnn(CC(=O)NC3CCCCC3)c(=O)c21	-12	4388	-2.4	-2	-12	0	-15
COc1ccc(C)cc1NS(=O)(=O)c1cc(C)ccc1C	-9	15711	-0.4	-3	-9	5	-5
N/C(=N\N=C\c1ccco1)SC1CC(=O)N(c2ccc(C(=O)O)cc2)C1=O (stereo not given)	/	2593	/	-6	/	/	-19

Next section; it opens with the four that closed the last part.
SMILES	Sa ugtP lethal	Autofluor counter	Sa RN4220 lethal	BJeLR viability	Mtb hypoxia rep	Mtb hypoxia rep growth	PrP UTR inh
COc1ccc(C2OC(=O)CC2C(=O)NCc2ccc(Cl)cc2)cc1OC (stereo not given)	2	4349	7.0	-22	11	8	-26
CCCn1c2ccccc2c2cnn(CC(=O)NC3CCCCC3)c(=O)c21	-12	4388	-2.4	-2	-12	0	-15
COc1ccc(C)cc1NS(=O)(=O)c1cc(C)ccc1C	-9	15711	-0.4	-3	-9	5	-5
N/C(=N\N=C\c1ccco1)SC1CC(=O)N(c2ccc(C(=O)O)cc2)C1=O (stereo not given)	/	2593	/	-6	/	/	-19
COc1ccc(C2CCCN2C(=O)Nc2ccc(C)c(C)c2)cc1OC (stereo not given)	6	5839	2.1	2	15	9	0
CC(C)CN(CC(C)C)S(=O)(=O)N1CCC(C(=O)NCc2ccco2)CC1	2	4865	2.0	0	0	-2	-30
Cc1cccnc1NC(=S)NC(=O)c1cccs1	0	11536	2.6	4	10	6	-75
Cc1noc(C)c1C(=O)OCC(=O)Nc1ccccc1Oc1ccccc1	-7	?	1.2	5	-1	7	0
CCCCNC(=O)CCCCC(=O)N/N=C/c1cccc(Cl)c1	/	2392	/	-9	/	/	-8
Cc1ccc(NC(=O)c2c([N+](=O)[O-])c(C(C)(C)C)nn2C)cc1	17	2218	7.1	0	7	7	-9
CC(C)(C)NC(=O)COC(=O)c1cc(Cl)ccc1[N+](=O)[O-]	7	4172	8.2	2	18	12	-17
COC(=O)c1cc(S(=O)(=O)N2CCOCC2)c(N2CCOCC2)cc1N1CCOCC1	-2	4434	2.1	/	/	/	11
CN(C)c1nc(-c2ccc([N+](=O)[O-])cc2)cs1	6	2781	11	-3	/	/	-31
Cc1nc2c(sc3nc(N4CCOCC4)c4c(c32)CC(C)(C)OC4)c(-c2ccc(Cl)cc2)c1C(=O)O	5	4911	0.4	-11	9	-1	-15
Clc1ccc(-c2ncc3ccccn23)c(Cl)c1	-5	4666	-2.6	9	-3	10	-28
Cc1ccc(C(=O)NCC(=O)Nc2ncccc2C)s1	13	4256	6.5	8	-11	-10	-5
